VDR inh = blocks the human vitamin D receptor; P11473; VDR-SRC2-3 peptide fluorescence polarization, 2 h; 400,000 compounds, 0.93% hits; Potency, µM, without a hit: max response, negative = inhibition, actives largely listed as inhibitors; active = well fitted inhibition curve with a large enough effect; inconclusive = small, poorly fitted or top-dose-only effect, or another doubt; inactive = no such curve, though single readings can be large or run the other way; note: series mostly up to about 120 µM
Target sequence (P11473 whole entry, looked up): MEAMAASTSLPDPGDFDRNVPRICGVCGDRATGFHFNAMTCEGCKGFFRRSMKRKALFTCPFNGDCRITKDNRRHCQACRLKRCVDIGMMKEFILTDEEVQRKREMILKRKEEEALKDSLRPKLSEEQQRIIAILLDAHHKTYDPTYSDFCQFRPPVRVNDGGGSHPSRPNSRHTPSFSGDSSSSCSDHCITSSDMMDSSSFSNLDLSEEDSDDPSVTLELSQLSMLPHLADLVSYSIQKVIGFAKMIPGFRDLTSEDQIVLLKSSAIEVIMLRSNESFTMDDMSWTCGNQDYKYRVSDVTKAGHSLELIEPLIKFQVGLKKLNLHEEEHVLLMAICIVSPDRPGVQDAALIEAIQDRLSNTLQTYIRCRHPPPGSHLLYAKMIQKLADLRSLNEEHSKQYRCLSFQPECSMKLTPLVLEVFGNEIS
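Two reagent solutions held at 4 deg C in the dark were dispensed, compounds pinned at 23 nl, and the mixture incubated 2 h at room temperature. Read-out: fluorescence polarization of VDR–SRC2-3 peptide binding.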
* marks the source's active call; other numbers are inactive results; ? = inconclusive; & = joins results of further samples. % is set by controls: 0 for no effect and ±100 for the full control effect; potency is the fitted concentration of half-maximal effect.

SMILES	VDR inh
Cn1c(=O)[nH]c(=O)c2c1nc(Br)n2CC(O)COc1ccccc1 (stereo not drawn)	13%
O=C(/C=C/c1ccc(F)cc1)N1CCc2ccccc2C1	-5%
O=C(CN1CCN(c2ccccc2O)CC1)Nc1ccc2c(c1)CCC2	-5%
CCc1ccc(S(=O)(=O)c2nnn3c2nc(Nc2cccc(C)c2C)c2sccc23)cc1	2%
O=C(CSc1c[nH]c2ccccc12)NCC1CCCO1 (stereo not drawn)	-9%
CCc1ccc(NC(=O)c2ccc(F)c(S(=O)(=O)N(CC)c3ccccc3)c2)cc1	3%
CCOC(=O)c1cccc(Nc2nc(C(=O)OCC)nc3ccccc23)c1	9%
CN(CC(=O)Nc1ccccc1C(F)(F)F)C(=O)C1=COCCO1	-10%
CC(C)(C(=O)Nc1nccs1)c1ccccc1	-16%
Cc1cc(C)cc(OCc2nnc(SCC(=O)c3ccccc3)o2)c1	-2%
Cc1nn(C)c(C)c1CCC(=O)N1CCCC(C(=O)c2cccc(OC(C)C)c2)C1 (stereo not drawn)	-24%
Cc1cc(C)nc(SCCCNCc2ccc(Br)cc2)n1	2%
Cc1nc(COC(=O)c2ccc(CO)cc2)cs1	2%
O=c1[nH]c2c(cnn2-c2ccc(Cl)cc2)c(=O)n1-c1cccc(Cl)c1	19%
CC(NC(=O)CSc1ncccc1C(=O)O)C1CC2CCC1C2 (stereo not drawn)	-4%
COCc1cc(=O)[nH]c(/N=C(\N)Nc2ccc(Cl)c(Cl)c2)n1	19%
CS(=O)(=O)N1CCC2(CCN(C(=O)Nc3cccc(F)c3)CC2)CC1	0%
Cc1cc(N/C=C(\C#N)S(=O)(=O)c2ccccc2Cl)nc(C)n1	-2%
CS(=O)(=O)Nc1cccc(C2=NN(C(=O)c3ccco3)C(c3ccco3)C2)c1 (stereo not drawn)	-11%
O=C(Nc1cccc(Cl)c1)C1CCCCC1	-19%
Cc1c2cnn(-c3ccccc3)c(=O)c2c(C)n1CCCC(=O)Nc1cc(F)ccc1F	5%
S=C(Nc1ccccc1Cl)N1CCCC(c2ccccc2)=N1	-6%
N#Cc1cnc(Nc2ccc(F)cc2)nc1N	-3%
COc1ccc(S(=O)(=O)N2CCN(Cc3cc(OC)c(OC)c(OC)c3)CC2)cc1	-14%
COC(=O)C(C)Oc1ccc(Cl)c(CN2OCC(C)(C)C2=O)c1 (stereo not drawn)	-5%
N=c1c2c3c(sc2ncn1CCN1CCOCC1)CCCCC3	-7%
Cc1cccn2c(=O)c3cc(C(=O)NC4CCCCC4C)n(C)c3nc12 (stereo not drawn)	-1%
C=CCn1c(CCC)nc2ccccc21	-6%
COc1cccc(C(=O)Nc2c3c(nn2-c2ccc(C)cc2C)CS(=O)(=O)C3)c1OC	12%
COC(=O)c1c(NC(=O)C2COc3ccccc3O2)sc2c1CCN(C(C)=O)C2 (stereo not drawn)	11%
CC(C)OC(=O)CSc1nnc(Cc2ccccc2)n1C	22%
CCCc1ccc(S(=O)(=O)N2CCN(Cc3ccco3)CC2)cc1	2%
COc1ccc(OC)c(NC(=O)CN(Cc2ccc(F)cc2)C2CCCCC2)c1	-1%
COc1ccc(CCNC(=O)c2cc(Nc3ccccc3)nc3ccccc23)cc1OC	9%
CC1CCCC(NC(=O)CN(C)S(=O)(=O)c2cccc3cccnc23)C1C (stereo not drawn)	-2%
CC(=O)N1CCN(c2csc3ccc(F)cc3c2=O)CC1	10%
CCCCn1c(NCc2ccc(N(C)C)cc2)nc2ccccc21	4%&6%
Cc1cc(NC(=O)CSc2nc3c(C)cccc3cc2C)no1	3%
COc1ccc(S(=O)(=O)N2CCC(C(=O)NCCC(=O)NCc3cccc(OC)c3)CC2)cc1	-9%
COc1ccc(OCCn2c(C)c(/C=N/n3cnnc3)c3ccccc32)cc1	-4%
O=c1c(-c2ccc(F)cc2)nc2cncnc2n1Cc1ccc(F)cc1	4%
CSc1cccc(NC(=O)C2CCN(S(=O)(=O)c3ccc4[nH]c(=O)ccc4c3)CC2)c1	-6%
O=C(CCCNS(=O)(=O)c1ccc(F)cc1)Nc1ccc(F)cc1	18%
Cc1cccc(/C(N)=N/OC(=O)CCCc2ccccc2)c1	15%
Cc1ncc(CO)c2c1Oc1nc(-c3ccccc3Cl)nc(SCc3ccccc3F)c1C2	3%
Cc1cccc(CSc2ccc(S(=O)(=O)N3CCCC3)cn2)c1	-13%
COc1cc(OC)c(NC(=O)c2cc(C)nc3c2c(C)nn3-c2ccc(C)cc2)cc1Cl	6%
Nc1nnc(-c2ccccc2[N+](=O)[O-])o1	-9%
CCOC(=O)c1ccc(NC(=O)NCc2ccccc2OC)cc1	-6%
Cc1noc(NS(=O)(=O)c2ccc(NC(=O)/C=C/c3ccccc3)cc2)c1C	-14%
CCOc1cc(C(=O)N2CCN(c3ccccc3)CC2)cc(OCC)c1OCC	-10%
CCn1c(=O)cc(SCC(=O)Nc2ccc(C)cn2)c2ccccc21	-12%
CCOc1ccc(-c2nc(CSc3nnc(C)s3)cs2)cc1OC	?
NC(=O)Nc1ccccc1C(=O)Nc1ccc2ccccc2c1	15%
COc1ccc2c(c1)C(=O)c1ccccc1CO2	6%
Cc1ccc(OCc2nnc(NC(=O)c3ccco3)s2)cc1	7%
CCc1c(C)sc2c1CCN(C(=O)Nc1ccccc1Cl)C2c1ccc(OC)cc1 (stereo not drawn)	2%
Nc1c(S(=O)(=O)c2cccs2)c2nc3ccccc3nc2n1CC1CCCO1 (stereo not drawn)	-3%
Cc1ccccc1C[n+]1cccc2ccccc21	-8%
Cc1nc2ccn(Cc3ccco3)c(=O)c2cc1C(=O)N1CCN(c2ccccc2)CC1	10%

In the list so far, these have bromine.
SMILES	VDR inh
Cn1c(=O)[nH]c(=O)c2c1nc(Br)n2CC(O)COc1ccccc1 (stereo not drawn)	13%
Cc1cc(C)nc(SCCCNCc2ccc(Br)cc2)n1	2%

Going on with the list:
SMILES	VDR inh
O=S(=O)(c1ccc(-c2cn3ccccc3n2)cc1)N1CCOCC1	9%
CC(C)Oc1ccc(Cc2cnc(=S)[nH]c2N)cc1	-27%
C=CCN(C(=O)c1ccccc1)c1ccc(OC)cc1	4%
O=C(c1ccc(F)cc1)c1c[nH]c(C(=O)NCc2ccco2)c1	3%
O=C(c1ccccc1Sc1ccccc1[N+](=O)[O-])N1CCCCC1	3%
CC(C)(O)CC[C@@H](O)[C@](C)(O)[C@H]1CC[C@@]2(O)C3=CC(=O)[C@@H]4C[C@@H](O)[C@@H](O)C[C@]4(C)[C@H]3CC[C@]12C	-9%
COc1ccc(NC(=O)C(NC(=O)Cc2cccs2)c2ccc(OC)cc2)cc1 (stereo not drawn)	-18%
Cc1ccc(CCNC(=O)C2CCCN(S(=O)(=O)c3cccc4nsnc34)C2)cc1 (stereo not drawn)	5%
CC(C)/C=N/NC(=O)c1cc(Br)ccc1O	-9%
CCOC(=O)c1ccccc1NC(=O)Cc1ccccc1OC	7%
COc1ccc(S(=O)(=O)N2CCC3(CC2)OCCN3S(=O)(=O)c2ccc(C)cc2)cc1OC	8%
O=C1CCc2cc(S(=O)(=O)N3CCC(C(=O)Nc4nccs4)CC3)ccc2N1	-3%
Cc1ccccc1-c1noc(-c2ccc(O)cc2)n1	5%
COc1ccccc1C(=O)NCCN1CCN(C(=O)c2ccccc2OC)CC1	-2%
COc1cc(-c2cc(OC)c3c(C)oc(C)c3c(=O)c2)ccc1OC(=O)c1ccccc1Cl	17%
Cc1cnc(C(=O)OCC(=O)Nc2cc(-c3cc(C)c(C)cc3C)nn2-c2ccccc2)cn1	-8%
CC(=O)Nc1ccc(S(=O)(=O)NCCC(=O)N2CCc3ccccc32)cc1	-4%
CC1(c2ccccc2)NC(=O)N(CC(=O)NNC(=O)c2cccc(Cl)c2)C1=O (stereo not drawn)	-7%
Cc1cc(NC(=O)c2ccc(F)c(S(=O)(=O)N3CCCCC3)c2)no1	-15%
Cc1noc(C)c1C(=O)N1CCC2(CCCN(c3ccncc3)C2)CC1	-2%
CC(=O)N1C(=O)/C(=C2\SC(=S)N(NC(=O)c3ccc(O)cc3)C2=O)c2ccccc21	-11%
Cc1ccc(/C=N/n2c(C3CCCCC3)n[nH]c2=S)s1	-10%
CCCN1CNc2c(c(=O)[nH]c(=S)n2CCCc2ccccc2)C1	?
CCCCNC1=C(Br)C(=O)CC(C)(C)C1	7%
CC(C)(C)n1nnnc1C(c1ccncc1)N(Cc1ccccc1)Cc1ccco1 (stereo not drawn)	-20%
Cc1ccc(S(N)(=O)=O)c(C)c1-n1cnnn1	12%
CCCC(=O)NCCc1nc2cc([N+](=O)[O-])ccc2n1C	-1%
COc1ccccc1-n1cc(CN2CCCC(CO)(Cc3cccc(Cl)c3)C2)cn1 (stereo not drawn)	3%
CC1CCN(C(=O)COC(=O)c2cc3ccccc3oc2=O)CC1	4%
COc1ccc(N2CCN(C(=O)Cc3coc4ccc(C)cc34)CC2)cc1	0%
CN(C)C(CNC(=O)c1cccc(C(F)(F)F)c1)c1ccco1 (stereo not drawn)	-14%
C=CCSc1nccc(-c2nn(-c3ccc(C)cc3)ccc2=O)n1	-4%
Cc1cc(C)nc(SCC(=O)Nc2ccnc3ccccc23)n1	1%
CCC(=O)N1CCN(c2nc(C)nc3sc(C)c(C)c23)CC1	2%
CC1CN(S(=O)(=O)c2cccc(C(F)(F)F)c2)C(C)N1C(=O)N1CCOCC1 (stereo not drawn)	8%
C=CC[C@]12C=C(OC)C(=O)C(OC)=C1O[C@@H](c1ccc3c(c1)OCO3)[C@H]2C	-29%
O=C(Cc1ccc(NC2=NC3CS(=O)(=O)CC3S2)cc1)NCc1ccc(Cl)cc1 (stereo not drawn)	-3%
NC1=NC(=O)C(Cc2cc(Cl)ccc2Cl)S1 (stereo not drawn)	2%
COC(=O)[C@H](C)N1C/C=C\COc2c(Cl)cc(Cl)cc2S1(=O)=O	2%
COC(=O)c1nnc(C(=O)N(C)Cc2ccccc2)c2[nH]c3ccccc3c12	-7%

Rewritten with values ahead of the structure: 3 of the compounds above.
VDR inh,compound
-9%,CC(C)(O)CC[C@@H](O)[C@](C)(O)[C@H]1CC[C@@]2(O)C3=CC(=O)[C@@H]4C[C@@H](O)[C@@H](O)C[C@]4(C)[C@H]3CC[C@]12C
-5%,COC(=O)C(C)Oc1ccc(Cl)c(CN2OCC(C)(C)C2=O)c1 (stereo not drawn)
?,CCOc1ccc(-c2nc(CSc3nnc(C)s3)cs2)cc1OC

In the list so far, these contain a nitro group on carbon.
SMILES	VDR inh
Nc1nnc(-c2ccccc2[N+](=O)[O-])o1	-9%
O=C(c1ccccc1Sc1ccccc1[N+](=O)[O-])N1CCCCC1	3%
CCCC(=O)NCCc1nc2cc([N+](=O)[O-])ccc2n1C	-1%

Remaining list, next part
SMILES	VDR inh
COc1ccc(NS(=O)(=O)c2ccc(NS(=O)(=O)c3ccc4c(c3)OCCO4)cc2)cc1	7%
COc1ccc(NC(=O)CSc2nccn2C2CCCC2)cc1OC	5%
CCOC(=O)c1c(NC(C)=O)no[n+]1[O-]	19%
NC(=O)C1CC(=O)N(c2ccc(OCc3c(Cl)cccc3Cl)cc2)C1 (stereo not drawn)	-15%
COc1ccc(OCC(Cn2cnc3ccccc32)OC(C)=O)cc1 (stereo not drawn)	-5%
O=C(c1cccc(Oc2c(Cl)cccc2[N+](=O)[O-])c1)N1CCOCC1	-11%
O=C(NC(=S)Nc1ccc(CN2CCOCC2)cc1)c1ccc(-c2ccc(Br)cc2)o1	18%
COc1cccc(NC(=S)Nc2cc(C(=O)O)ccc2N2CC3CC(C2)c2cccc(=O)n2C3)c1 (stereo not drawn)	-28%
COC(=O)CNC(=O)CSc1nc(N)cc(=O)[nH]1	-6%
Cc1cc(C)nc(SCc2ccc(Cl)cc2)n1	8%
NC(=O)NC(=O)C(OC(=O)CCNS(=O)(=O)c1ccccc1)c1ccccc1 (stereo not drawn)	2%
O=C(N/N=C/c1ccco1)C(O)c1ccccc1 (stereo not drawn)	-10%
COC(=O)C1C(=O)c2c(C)noc2CC1(C)C (stereo not drawn)	-1%
CCC(=O)N1c2ccccc2CC1C(=O)NCc1ccccc1C (stereo not drawn)	-2%
CCCOc1ccc(C2C(=O)N(C3CCC(C)CC3)CC(=O)N2CCC2=CCCCC2)cc1OC (stereo not drawn)	-3%
Cc1ccsc1/C=c1\sc2ncnn2c1=O	-13%
O=C(COC(=O)/C=C/c1ccc(Cl)c(Cl)c1)NC1CC1	15%
CC(=O)NCCC(=O)N1CCCC(CNC(=O)c2ccc(-c3ccccc3)cc2)C1 (stereo not drawn)	10%
O=C(CSCc1c(Cl)cccc1Cl)Nc1ccccc1C(=O)N1CCOCC1	10%
COc1ccccc1NC(=O)N1CCn2c(nc3ccccc32)C1	-1%
Cc1ccc(S(=O)(=O)CC(=O)c2cc3cccc(C)c3oc2=O)cc1	7%
COc1ccc(-c2csc(-n3ncc(C(=O)O)c3C(F)(F)F)n2)cc1	-17%
Cc1ccc(NC(=O)c2cccc(C(=O)Nc3ccc(C)c(C)c3)n2)cc1C	-16%
COc1cc2c(cc1OC)CN(C(=O)C1CCC(=O)N(CCCN3CCOCC3)C1)CC2 (stereo not drawn)	12%
CCOc1ccc2nc3sc(C(=O)N4CCOCC4)c(N)c3cc2c1	-9%
C=CCc1ccc(OCCOCCOc2cccc3cccnc23)c(OC)c1	-3%
COc1ccc(CNC(=O)CN2C(=O)CSc3ccc(S(=O)(=O)N(C)C)cc32)cc1	9%

Arranged by value in VDR inh (highest first): some entries from above
SMILES	VDR inh
COc1ccc(CNC(=O)CN2C(=O)CSc3ccc(S(=O)(=O)N(C)C)cc32)cc1	9%
Cc1ccc(S(=O)(=O)CC(=O)c2cc3cccc(C)c3oc2=O)cc1	7%
CCOc1ccc2nc3sc(C(=O)N4CCOCC4)c(N)c3cc2c1	-9%
COc1ccc(-c2csc(-n3ncc(C(=O)O)c3C(F)(F)F)n2)cc1	-17%

Source: PubChem (National Center for Advancing Translational Sciences (NCATS))

Not all compounds are listed, so the mix of outcomes need not match the whole.
